Assay outcomes from PubChem.
MT1-MMP act inh – blockers of MT1-MMP proenzyme processing, primary screen, HT1080 RFP-PRO-GFP cells, GFP/RFP fluorescence. Matrix metalloproteinase-14 (Homo sapiens), P50281. GFP/RFP ratio fluorescence, overnight; percent of plate control window, DMSO zero. GFP/RFP ratio change, % at 20 µM. 0.061% of 360,000 active;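 active = GFP/RFP ratio change of at least 30% with cell ATP level not reduced by more than half and red fluorescence within 50% of control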; note: strong numbers were not always called active
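Test system: HT1080 cells expressing an RFP-PRO-GFP fluorescent reporter construct / Compound dosing: single-point 20 µM compound, 1% DMSO / Schedule: cells overnight before dosing, compound overnight, 37 °C, 5% CO2 / Evaluation: GFP/RFP fluorescence ratio / Control set: DMSO and RFP-L50D-GFP cell wells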
PABP FP inh – PABP poly(A) RNA binding inhibitors, primary screen, biochemical, fluorescence polarization, uHTS | Polyadenylate-binding protein 1 (Homo sapiens), P11940 | inhibition, % at 35 µM | 1% of 290,000 active | AID 2014, 2009;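 active = 50% or more with normal probe brightness, or confirmed in later tests; inconclusive = above 50% with abnormal brightness, or retests that disagree; inactive = below 50% or failed in later tests; about a fifth of its hits are not listed in these tables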;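 note: calls also rest on retests at 20 µM and on dose response follow-up; controls were probe without protein and protein plus probe with vehicle; some compounds called inactive have numbers as strong as hits; many hits fall short of the cut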
Target sequence (P11940 whole entry, looked up): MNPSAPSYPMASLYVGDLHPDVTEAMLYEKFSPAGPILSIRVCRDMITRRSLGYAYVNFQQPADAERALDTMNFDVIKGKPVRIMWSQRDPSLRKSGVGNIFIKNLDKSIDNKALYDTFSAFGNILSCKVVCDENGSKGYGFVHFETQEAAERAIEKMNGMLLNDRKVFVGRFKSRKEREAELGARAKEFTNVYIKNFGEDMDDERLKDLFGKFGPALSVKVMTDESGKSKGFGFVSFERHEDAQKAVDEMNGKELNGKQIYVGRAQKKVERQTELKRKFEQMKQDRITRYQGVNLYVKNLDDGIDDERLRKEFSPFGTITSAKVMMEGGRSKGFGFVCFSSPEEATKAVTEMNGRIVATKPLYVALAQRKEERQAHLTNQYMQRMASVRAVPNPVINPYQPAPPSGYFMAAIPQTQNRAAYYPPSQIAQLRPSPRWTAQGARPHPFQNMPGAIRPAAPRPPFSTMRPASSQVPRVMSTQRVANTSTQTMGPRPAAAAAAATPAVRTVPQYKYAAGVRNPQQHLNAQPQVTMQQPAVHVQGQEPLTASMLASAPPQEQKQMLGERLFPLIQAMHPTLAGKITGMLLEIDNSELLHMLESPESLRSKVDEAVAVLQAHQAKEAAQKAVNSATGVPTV
Rce1 inh – yeast Rce1p protease inhibitors, primary screen, biochemical, fluorescence, cell-free homogeneous. CAAX prenyl protease 2 (Saccharomyces cerevisiae (strain ATCC 204508 / S288c)), Q03530. yeast membranes, quenched prenylated peptide cleavage fluorescence. calls only. 0.27% of 290,000 active. AID 2563, 2010;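 active = fall in fluorescence gain of 50% or more versus controls, with final raw signal at or below 3038400; inconclusive = same 50% fall but final raw signal above 3038400; inactive = fall in fluorescence gain under 50%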;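 note: plate controls were neutral control wells for no effect and wells lacking membranes for full effect; tested at 10 µM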
HIV Env fusion – inhibitors of HIV-1 Env-driven cell-cell fusion, primary screen, HeLa-JRFL effector, CEM21 target cells, luciferase; 1.1% of 360,000 active; inhibition, % at 12.3 µM; AID 651610, 2012;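 active = mean replicate inhibition score of at least 50 and every replicate individually at or above 50; inconclusive = only one of the two criteria met; inactive = mean below 50 and not all replicates reaching 50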;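 note: 0% = plate neutral controls and 100% = maraviroc near 300 nM; one replicate is shown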
eIF4H inh – human eIF4H binding inhibitors, primary screen, translation initiation inhibitor project, biochemical, uHTS, fluorescence polarization. 0.94% of 290,000 active. inhibition, % at 35 µM. AID 2012, 2009. Eukaryotic translation initiation factor 4H (Homo sapiens), Q15056. eIF4H fluorescence polarization binding assay;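 active = 50% or more with normal probe brightness, or confirmed in later tests; inconclusive = above 50% with abnormal brightness, or retests that disagree; inactive = below 50% or failed in later tests; about a fifth of its hits are not listed in these tables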;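 note: calls also rest on retests at 20 µM and on dose response follow-up; 0% = protein and probe with vehicle and 100% = probe without protein; strong numbers were not always called active; many hits fall short of the cut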
CSC inhib – cancer stem cell viability inhibitors, primary screen, luminescence | cancer stem cell-like cells viability | inhibition, % at 7.5 µM | 1.1% of 300,000 active;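 active = mean at 75% or more and at least half the replicates too; inconclusive = mean and replicates disagree; tested in HMLE shEcad cells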;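 note: 0% = median of negative and 100% = median of positive control wells; the first replicate is given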
Yeast UUG start – modulators of yeast start codon fidelity, primary screen, whole organism, S. cerevisiae, single point, plate reader | activity score, % at 18.7 µM | 0.13% of 350,000 active | AID 602363, 2012 | S. cerevisiae UUG-firefly luciferase reporter, luminescence/redox ratio;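 active = replicate mean at a twofold rise or more, about +100% in these data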;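 note: firefly luciferase made from a UUG start codon reports start codon fidelity; reporter light over untreated wells divided by growth signal over untreated wells; some hits fall short of that in this replicate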
MT1-MMP act inh RFP – second read-out of MT1-MMP act inh, no call of its own (marks repeat the call); RFP signal change, %; measured here: RFP expression control read;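 0 = vehicle wells; hits needed this value within 50% of zero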
* = called active by the depositor; i = inactive; ? = inconclusive; . = not tested or not shown; + = active, no number; [ ] = remark or other dose. Only part of the results is shown; count on the stated rates, not on these rows.

SMILES	MT1-MMP act inh	MT1-MMP act inh RFP	PABP FP inh	Rce1 inh	HIV Env fusion	eIF4H inh	CSC inhib	Yeast UUG start
O=C(CCCCCNC(=O)c1ccccc1Cl)N/N=C/c1ccco1	4	6	0	i	-1	13	-1	.
CC(C)NC(=S)NCc1cccs1	2	3	0	i	-2	-1	-6	.
CCOc1ccccc1-n1c(=O)c2ccccc2c2ccccc2c1=O	-1	-1	4	i	6	0	-16	.
COc1ccc(NC(=O)c2ccccc2NC(=O)c2ccccc2)cc1	-1	0	13	i	-3	0	-12	8
[O-]c1c[n+](-c2ccccc2)no1	-3	2	4	i	-11	-8	-16	.
C#CC(CC)(CC)NC(=O)/C=C/C(=O)O	5	4	7	i	-9	-7	-9	.
c1coc(CNCc2cccs2)c1	1	6	-1	i	9	-5	-19	-18
C/C(=N\NC(=O)Cn1ccc(C(F)(F)F)n1)c1ccco1	6	9	0	i	11	4	-10	.
CCOC(=O)c1ccc(NC(=O)c2nc[nH]c2C(=O)NCCNC(=O)c2[nH]cnc2C(=O)Nc2ccc(C(=O)OCC)cc2)cc1	-64	-35	.	.	82*	.	122*	-17
O=C(Nc1ccc2nc(-c3cccnc3)[nH]c2c1)c1ccco1	5	3	-15	i	-8	-7	3	-7
NS(=O)(=O)c1cc(C(=O)NC2CCSc3ccccc32)ccc1Cl (stereo not drawn)	0	0	90*	i	-7	106*	-9	-27
Cc1ccc(C(=O)Nc2ccc3c(c2)C(=O)NC3=O)cc1	2	5	-15	i	14	-5	0	-18
COc1ccc(C(O)(CC(C)C)C(CN2CCOCC2)c2ccccc2)cc1 (stereo not drawn)	-12	-14	19	i	34	-6	40	-10
CC(=O)Nc1ccc(S(=O)(=O)N2CCC(N3CCCCCC3)CC2)cc1	1	4	18	i	4	12	-4	-13
CN(C(=O)COC(=O)CCC(=O)c1ccc(Cl)cc1)c1c(N)n(Cc2ccccc2)c(=O)[nH]c1=O	1	0	.	i	-2	.	.	7
COc1ccc(S(=O)(=O)N2CCN(CCCOc3ccc(F)cc3)CC2)cc1OC	1	-6	2	i	18	1	-2	303*
N/C(=N\OC(=O)CC1CCCCC1)c1ccc(Br)cc1	2	0	-1	i	-10	-2	3	-7
COc1ccc(NC(=O)CSc2nnc3ccc(-c4cccnc4)nn23)cc1OC	0	1	.	i	16	.	-8	-5
N#Cc1ccc(CSc2ccc(S(=O)(=O)N3CCCC3)cn2)cc1	-8	-6	.	.	10	.	-6	-11
COc1cccc(-c2nc3c(c(SCC(=O)N4CCOCC4)n2)Cc2c(CO)cnc(C)c2O3)c1	3	3	6	i	.	-1	-2	-15
O=c1cc(CN2CCN(Cc3ccccc3)CC2)c2cc3c(cc2o1)CCC3	-1	-2	3	i	20	-4	5	-1
N#C/C(=C/c1ccco1)c1nc2ccccc2s1	-12	5	-4	i	-436	?	11	1
CCCN(C(=O)Cn1c(C(F)(F)F)nc2ccccc21)C1CCS(=O)(=O)C1 (stereo not drawn)	2	0	.	i	.	.	12	-6
COc1ccccc1C(CNc1ncccc1[N+](=O)[O-])N(C)C (stereo not drawn)	-2	1	?	i	-8	?	-6	-9
Cc1ccc(CC(=O)Nc2ccc(OC(F)F)c(Cl)c2)cc1C	0	3	11	i	0	-9	33	.
Later entries:
SMILES	MT1-MMP act inh	MT1-MMP act inh RFP	PABP FP inh	Rce1 inh	HIV Env fusion	eIF4H inh	CSC inhib	Yeast UUG start
Cc1c(C)n(O)c2ccc3nonc3c12	-13	-2	23	i	-9	30	2	-17
CCOC(=O)C1CCCN(C(=O)c2ccncc2)CC1 (stereo not drawn)	-4	1	.	.	9	.	.	-22
Cc1cccc(Nc2nc(NCC3CCCO3)nc(N)c2[N+](=O)[O-])c1 (stereo not drawn)	-3	-4	3	i	.	-14	15	.
C=CCNc1nnc(SCC(=O)Nc2ccccc2OC)c2ccccc12	1	0	1	i	19	-12	-13	-6
COc1ccc(-n2nc(C(=O)NCC(=O)N3CCN(Cc4ccccc4)CC3)c3ccccc3c2=O)c(OC)c1	4	3	-1	i	-21	-1	21	-22
O=C(/C=C/c1ccco1)c1ccccc1O	0	3	10	i	-9	0	-10	.
COCCNC(=O)c1ccc(N2CC3CC(C2)c2cccc(=O)n2C3)c(NC(=O)c2ccccc2Br)c1 (stereo not drawn)	-2	3	.	.	14	.	.	-16
CC(=O)Nc1nnc(SCC(=O)N2CCN(Cc3ccccc3)CC2)s1	6	2	4	i	-43	8	-5	-10
O=C(O)c1ccc2c3c(cccc13)C(=O)N(c1cccc3ccccc13)C2=O	-2	0	1	i	4	-4	-10	.
CCCCNC(=O)CCSc1nc2nc(C)cc(C)n2n1	1	2	7	i	.	2	-8	.
CS(=O)(=O)N(CC(=O)N1CCCC1)c1cccc(Cl)c1Cl	1	1	-9	i	.	-6	-11	-11
CN(Cc1nc2ccccc2[nH]1)C(=O)C1CCC(=O)N(CCc2cccc(F)c2)C1 (stereo not drawn)	-1	1	12	i	-6	2	2	-11
CCOc1cc(CNc2ccc(Br)cc2)cc(Br)c1OCC(=O)NC(C)(C)C	-3	-10	0	i	.	-6	?	.
CCCCN1C(=O)C(CC(=O)NCCCCc2ccccc2)CC(C(=O)N(C)C)=C1C (stereo not drawn)	4	9	.	.	4	.	.	-11
Cc1ccc2nc(Cl)c3cc(C(=O)N(CCN(C)C)Cc4ccco4)sc3c2c1	-9	-7	-5	i	8	-15	93*	.
Cc1ccc(C(=O)N/C(=C\c2ccc(-c3ccc([N+](=O)[O-])cc3)o2)C(=O)NC2CCS(=O)(=O)C2)cc1 (stereo not drawn)	-51	-5	-1	i	-18	-11	2	.
Cc1ccc(C2OCC3(CO2)COC(c2ccc(C)cc2)OC3)cc1 (stereo not drawn)	6	8	-1	i	12	-2	6	.
CCOCCCNC(=O)CSc1nnc(-c2ccc(S(=O)(=O)N3CCCC3)cc2)n1C	0	2	5	i	-1	-7	-12	-6
Cc1ccc(SCCNC(=O)/C=C/c2cccc([N+](=O)[O-])c2)cc1	2	2	-10	i	-21	-4	13	-9
CCCC[C@H]1COCCS(=O)(=O)N1Cc1cccc(F)c1	7	8	6	i	1	-3	-5	-4
CCC(Sc1nc(-c2cccc(OC)c2)c(C#N)c(=O)[nH]1)C(=O)Nc1nnc(C(C)C)s1 (stereo not drawn)	3	2	4	i	12	6	7	.
Cc1occc1-c1nnc(SCC(=O)Nc2ccccn2)o1	1	2	11	i	-15	0	6	.
c1ccc(N2CCN(c3ccccc3)C2c2ccncc2)cc1	0	-3	-3	i	.	-3	0	-5
CCn1c(N2CCN(C(=S)Nc3ccc(OC)cc3)CC2)nc2ccccc21	4	-6	-4	i	18	-7	6	-30
O=P(Cc1cccc2ccccc12)(c1ccccc1)c1ccccc1	-2	0	.	.	10	.	.	-16

Among those listed so far, 2 contain a CF3 group:
SMILES	MT1-MMP act inh	MT1-MMP act inh RFP	PABP FP inh	Rce1 inh	HIV Env fusion	eIF4H inh	CSC inhib	Yeast UUG start
C/C(=N\NC(=O)Cn1ccc(C(F)(F)F)n1)c1ccco1	6	9	0	i	11	4	-10	.
CCCN(C(=O)Cn1c(C(F)(F)F)nc2ccccc21)C1CCS(=O)(=O)C1 (stereo not drawn)	2	0	.	i	.	.	12	-6

The list continues.
SMILES	MT1-MMP act inh	MT1-MMP act inh RFP	PABP FP inh	Rce1 inh	HIV Env fusion	eIF4H inh	CSC inhib	Yeast UUG start
COc1ccc(-n2c(SCC(=O)N/N=C/c3ccccc3OCC(=O)O)nc3ccccc3c2=O)cc1	0	4	12	i	3	12	4	-17
Cn1nc(OC(=O)Nc2cccc(Cl)c2)cc1C(F)(F)F	5	3	0	i	.	2	21	-15
S=C(NCCc1ccccc1)N/N=C/c1cccc(Cl)c1Cl	4	4	14	i	-8	-15	-11	.
COc1cc(NC(=S)NCCN2CCOCC2)cc(OC)c1OC	-3	4	-18	i	-12	0	-6	.
Cc1c(NC(=O)c2cccc(F)c2)c(=O)n(-c2ccccc2)n1C	3	4	0	i	.	1	.	12
O=C1CN(C(=O)COc2ccc(F)cc2Br)c2ccccc2N1	-2	-4	11	i	48	-3	-9	7
CC(=O)NCCC(=O)N(Cc1ccccc1)c1nc2c(C)cccc2s1	0	-7	2	i	21	-1	2	14
COc1ccc(N2C(=O)C3CCCN3C2c2ccccc2)cc1 (stereo not drawn)	-5	2	-8	i	-8	-4	-17	-23
O=C(NC(=S)N1CCCC1)c1ccccc1Cl	2	2	6	i	-5	5	-5	-15
COc1ccc(OC)c(NC2c3ncccc3C(=O)N2Cc2ccco2)c1 (stereo not drawn)	-10	-1	2	i	.	7	.	-12
C=CCn1c(N)cc(=O)nc1SCC(=O)N(c1ccccc1)c1ccccc1	2	6	6	i	23	-2	-9	-1
O=C(CNC(=O)c1ccc2c(c1)OCCO2)N/N=C/c1ccco1	1	2	4	i	6	5	-10	.
O=C(Nc1nc2c(s1)CCCC2)c1nn(Cc2ccccc2)c(=O)c2ccccc12	-7	-9	4	i	.	-7	26	.
CCS(=O)(=O)NCc1cn2c(C)csc2n1	0	6	-6	i	.	-11	-7	.
Cc1ccc(NC(=O)COC(=O)/C(=C/c2cccs2)c2cccs2)cc1S(=O)(=O)N(C)C	-14	-24	0	i	15	0	.	-7
CCn1c(SCC(=O)NCC(=O)Nc2ccc(F)cc2)nnc1-c1cccs1	-4	-5	5	i	-6	5	.	-6
CCc1ccccc1N(C(=O)c1snc(C(N)=O)c1N)C(C(=O)NCC1CCCO1)c1ccc(C)o1 (stereo not drawn)	-5	-2	-2	i	14	-5	3	14
CC(C)c1onc(C(=O)NC2CCCCC2)c1[N+](=O)[O-]	1	2	-1	i	-2	-3	-1	.
CCN(CC)CCNC(=O)NC1CCCCC1	6	10	-5	i	26	1	-5	-33
COC(=O)COC(=O)c1ccc(-n2nnnc2SC)cc1	-5	-2	2	i	-11	-7	-4	-9
CC(C)NC(=O)N(C)C[C@H]1Oc2c(NS(=O)(=O)c3cccs3)cccc2C(=O)N([C@H](C)CO)C[C@@H]1C	.	.	.	.	21[16.7 µM]	.	-22	-6
COC(=O)C1=CNC=C(C(=O)OC)C1c1cccc2ccccc12	-8	-6	-7	+	0	0	3	12
Cc1ccc(CNC(=O)C2CCN(C(=O)c3cccc(Cl)c3)CC2)cc1	5	2	6	i	12	-16	-8	-11
COc1cc(OC)c2ccc(=O)oc2c1C(CCN1CCN(c2ccccc2)CC1)c1ccc(N(C)C)cc1 (stereo not drawn)	1	1	-5	i	-1	-12	13	23
CCCn1c(=O)c(C(=O)NNC(=O)c2ccccc2Cl)c(O)c2ccccc21	2	4	-10	i	12	10	.	-7
CCOC(=O)c1[nH]c(Cc2[nH]c(C(=O)OCC)c(C)c2CCC(=O)OC)c(CCC(=O)OC)c1C	-40	-37	7	i	-22	6	0	-22
O=C(Nc1cccc(-c2cccc(Cl)c2)c1)C1CCN(Cc2ccccn2)CC1	1	-1	8	i	5	11	-4	-6
CSc1ccccc1NC(=O)CNCCCN1CCOCC1	1	-7	1	i	-9	0	-11	-12
O=C(CCn1c(=O)c2sccc2n(CC(=O)NCc2ccco2)c1=O)NCc1ccccc1	5	6	13	i	-32	-3	-4	4
